RecA splice inh = Mtb RecA intein splicing inhibitors, primary screen, biochemical, fluorescence, HTS. Protein RecA (Mycobacterium tuberculosis (strain ATCC 25618 / H37Rv)), P9WHJ3. cell-free RecA intein splicing. inhibition, %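 (about 9 µM by stock and volumes)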. 290,000 tested, 0.75% active. AID 2221, 2009; in the data active means inhibition above about 30%;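 further: 0% = vehicle wells and 100% = reference inhibitor control wells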
Target sequence (P9WHJ3 whole entry, looked up, canonical isoform): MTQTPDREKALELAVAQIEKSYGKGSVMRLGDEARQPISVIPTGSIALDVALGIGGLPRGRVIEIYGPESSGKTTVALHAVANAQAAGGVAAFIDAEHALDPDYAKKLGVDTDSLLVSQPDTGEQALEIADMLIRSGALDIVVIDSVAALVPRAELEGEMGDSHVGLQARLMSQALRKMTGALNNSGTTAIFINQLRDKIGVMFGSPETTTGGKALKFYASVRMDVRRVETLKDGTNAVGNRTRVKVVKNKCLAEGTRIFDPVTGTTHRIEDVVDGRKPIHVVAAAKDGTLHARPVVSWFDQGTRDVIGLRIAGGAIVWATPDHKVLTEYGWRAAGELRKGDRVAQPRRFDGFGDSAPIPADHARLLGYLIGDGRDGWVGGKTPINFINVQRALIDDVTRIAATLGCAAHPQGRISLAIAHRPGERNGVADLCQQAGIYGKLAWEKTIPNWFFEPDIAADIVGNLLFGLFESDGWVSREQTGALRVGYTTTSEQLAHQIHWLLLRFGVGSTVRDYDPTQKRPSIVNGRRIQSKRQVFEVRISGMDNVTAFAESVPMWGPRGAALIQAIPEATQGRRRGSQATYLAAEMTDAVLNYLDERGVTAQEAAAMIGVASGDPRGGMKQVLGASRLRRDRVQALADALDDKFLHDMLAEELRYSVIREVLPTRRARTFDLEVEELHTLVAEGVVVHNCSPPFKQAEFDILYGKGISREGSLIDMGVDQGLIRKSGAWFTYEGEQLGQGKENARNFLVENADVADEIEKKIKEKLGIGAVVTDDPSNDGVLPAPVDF
Arbovirus inh = antivirals against arbovirus infection, primary screen, cell-based, full library, 10K replicate subset. inhibition, % at 10 µM. arbovirus infection cell-based antiviral screen. 200,000 tested, 0.37% active;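 active means inhibition from about 30%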;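 further: bluetongue infection of BSR cells; cell survival read as ATP light after 72 h; 0% = infected wells without compound and 100% = uninfected wells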
Mtb betalactam = beta-lactam sensitization of Mtb H37Rv, H37Rv; 330,000 tested, 0.27% active; M. tuberculosis H37Rv growth with meropenem, percent inhibition; hits of this screen are not shown here; inhibition, % at 25 µM;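 active means about 74% or more and at least 40 points above the plate without the antibiotic, then above 30% in a dose series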;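 further: growth measured after seven days incubation then overnight dye step; 0% = bacteria only wells and 100% = bacteria with antibiotic; twin plates without the antibiotic show which effects depend on it; some results filed as inactive read as strong as hits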
YopH PTP inh = YopH tyrosine phosphatase inhibitors, primary screen, biochemical, fluorescence Ex485/Em525. inhibition, %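 (about 10 µM by stock and volumes)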. 140,000 tested, 0.16% active. YopH tyrosine phosphatase [Yersinia enterocolitica];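 active means inhibition of 50% or more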;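 further: controls were vehicle for no effect and minimum signal wells for full effect; inactives centre near -20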
Mtb H37Rv = M. tuberculosis H37Rv growth inhibitors, H37Rv strain (AID 1626); M. tuberculosis H37Rv growth inhibition; higher % means a stronger effect; inhibition, % at 10 µM; hits with a dose series show IC50 in µM; 220,000 tested, 0.95% active;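 active means confirmed in a dose series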;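 further: bacteria incubated seven days before Alamar blue readout; 0% = bacteria only wells and 100% = bacteria with antibiotic wells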
The depositor's hits bear a star. This is a subset. The share of hits here may be higher or lower than overall.

`CCCCn1nnnc1NCc1ccc(OC)c(OC)c1` gave RecA splice inh 0.3, Arbovirus inh 9, Mtb betalactam 0, YopH PTP inh -12 and Mtb H37Rv 9%.
CN(C)S(=O)(=O)c1cc(NC(=O)CN2CCN(c3ccc(O)cc3)CC2)ccc1Cl was read as RecA splice inh -7.3, Arbovirus inh -8, Mtb betalactam -5 and Mtb H37Rv 1%.
Screening COc1ccc(S(=O)(=O)N2CCN(C(=O)C3CCCCC3)CC2)cc1 returned RecA splice inh 1.3 and Mtb betalactam -4.
Screening CC1=NOC2(C)Nc3ncnn3C(c3ccccc3)C12 (stereo not drawn) returned RecA splice inh 3.6, Arbovirus inh 1, Mtb betalactam 2, YopH PTP inh -22 and Mtb H37Rv -5%.
C=CCN(CC=C)C(=O)CN1C(=O)c2ccccc2C1=O was read as RecA splice inh -3.9, Arbovirus inh -3, Mtb betalactam -28, YopH PTP inh 14 and Mtb H37Rv -7%.
CSc1ccc(CNCCN2CCOCC2)cc1 was read as RecA splice inh 1.9, Arbovirus inh -5, Mtb betalactam -2 and Mtb H37Rv -2%.
For COCCNc1ccc(-c2nn(C)c(=O)c3ccccc23)cc1[N+](=O)[O-] the results were RecA splice inh 0.6, Mtb betalactam -2 and Mtb H37Rv -1%.
Cn1cc(/C=C(\C(=O)O)C(C(=O)O)=C2CCCCC2)c2ccccc21 was read as RecA splice inh 2.8, Arbovirus inh 9, Mtb betalactam 3 and Mtb H37Rv 1%.
O=C(N/N=C/c1ccccc1O)C(=O)Nc1ccccn1 was read as RecA splice inh -6.2, Arbovirus inh 1, Mtb betalactam 47 and Mtb H37Rv 25%.
`CCCNC(=S)N1CCC(NC(=O)C23CC4CC(CC(C4)C2)C3)CC1` gave RecA splice inh -1.0, Arbovirus inh 4, Mtb betalactam -3, YopH PTP inh -21 and Mtb H37Rv -8%.
COc1ccc([N+](=O)[O-])cc1NC(=O)CSCc1ccccc1 was read as RecA splice inh 2.9, Arbovirus inh -6, Mtb betalactam -1, YopH PTP inh -43 and Mtb H37Rv 2%.
For Cc1ccccc1OCc1csc(N)n1 the results were RecA splice inh -0.6, Arbovirus inh -1, Mtb betalactam 5 and Mtb H37Rv 4%.
Screening COc1cccc(N2C(=O)C(c3ccccc3)=C(c3nc4ccccc4s3)C2NC(C)=O)c1 (stereo not drawn) returned RecA splice inh 3.3, Arbovirus inh 0, Mtb betalactam 8, YopH PTP inh -8 and Mtb H37Rv 3%.
CC(=N/O)/C(C)=N\NC(=O)c1ccccn1 was read as RecA splice inh -1.0, Arbovirus inh 0, Mtb betalactam 84 and Mtb H37Rv 10%.
Screening COc1cccc(CN2CC(C(=O)NCCN3CCOC3=O)CCC2=O)c1 (stereo not drawn) returned RecA splice inh 1.4 and Mtb betalactam -6.

In the list so far, these contain four or more nitrogen atoms.
`CCCCn1nnnc1NCc1ccc(OC)c(OC)c1` gave RecA splice inh 0.3, Arbovirus inh 9, Mtb betalactam 0, YopH PTP inh -12 and Mtb H37Rv 9%.
CN(C)S(=O)(=O)c1cc(NC(=O)CN2CCN(c3ccc(O)cc3)CC2)ccc1Cl was read as RecA splice inh -7.3, Arbovirus inh -8, Mtb betalactam -5 and Mtb H37Rv 1%.
Screening CC1=NOC2(C)Nc3ncnn3C(c3ccccc3)C12 (stereo not drawn) returned RecA splice inh 3.6, Arbovirus inh 1, Mtb betalactam 2, YopH PTP inh -22 and Mtb H37Rv -5%.
For COCCNc1ccc(-c2nn(C)c(=O)c3ccccc23)cc1[N+](=O)[O-] the results were RecA splice inh 0.6, Mtb betalactam -2 and Mtb H37Rv -1%.
O=C(N/N=C/c1ccccc1O)C(=O)Nc1ccccn1 was read as RecA splice inh -6.2, Arbovirus inh 1, Mtb betalactam 47 and Mtb H37Rv 25%.
CC(=N/O)/C(C)=N\NC(=O)c1ccccn1 was read as RecA splice inh -1.0, Arbovirus inh 0, Mtb betalactam 84 and Mtb H37Rv 10%.

The results go on.
`Cc1cccc(C)c1NC(=O)CSc1nnc(NC(=O)CN2CCOCC2)s1` gave RecA splice inh -0.2, Arbovirus inh 14, Mtb betalactam -4, YopH PTP inh -4 and Mtb H37Rv 5%.
CCOC(=O)C1(Cc2ccccc2C(F)(F)F)CCN(C2CCCC2)CC1 was read as RecA splice inh 0.8, Arbovirus inh 13, Mtb betalactam -1 and Mtb H37Rv -3%.
Screening Cc1ccc(C(=O)COC(=O)CCc2ccc(S(=O)(=O)N3CCCCC3)cc2)cc1 returned RecA splice inh -0.5, Arbovirus inh 10, Mtb betalactam 0, YopH PTP inh -20 and Mtb H37Rv 2%.
COc1ccc(CCNC(=O)C(NS(=O)(=O)c2cccc3nsnc23)C(C)C)cc1OC (stereo not drawn) was read as RecA splice inh 2.2 and Mtb betalactam -7.
Screening CCc1nnc(N/N=C/c2ccc(O)c(OC)c2)n1N returned RecA splice inh 0.4 and Mtb betalactam -8.
For O=C(CSc1nc(-c2ccc(F)cc2)cc(C(F)(F)F)n1)NCCN1CCOCC1 the results were RecA splice inh -0.2, Arbovirus inh -1, Mtb betalactam -12, YopH PTP inh -25 and Mtb H37Rv -2%.
O=C(Nc1ccc(Cl)cn1)Nc1cccs1 was read as RecA splice inh -1.6, Arbovirus inh 6, Mtb betalactam -9, YopH PTP inh -15 and Mtb H37Rv -2%.
`CCCOc1ccc2c(C)c(CC(=O)OC)c(=O)oc2c1` gave RecA splice inh -4.5, Arbovirus inh -1, Mtb betalactam -3, YopH PTP inh -8 and Mtb H37Rv -2%.
Screening Cc1ccccc1-c1n[nH]c(=S)n1/N=C/c1ccc(-c2ccccc2Br)o1 returned RecA splice inh 3.1, Arbovirus inh 22 and Mtb H37Rv 7%.
`O=C(CCCc1nc(-c2ccccc2)no1)N1CCOCC1` gave RecA splice inh 7.4, Arbovirus inh 7, Mtb betalactam -9, YopH PTP inh -29 and Mtb H37Rv -12%.
`O=C(CSc1nc(C(F)(F)F)cc(=O)[nH]1)Nc1nccs1` gave RecA splice inh -2.0 and Mtb betalactam -5.
CN1c2ccccc2C(C)(C)C12CCCC(=O)N2 (stereo not drawn) was read as RecA splice inh -3.6, Arbovirus inh 4, Mtb betalactam -4, YopH PTP inh -39 and Mtb H37Rv 2%.
`CC1(C)CCC(=O)N2CC[C@H]3C[C@H](OC(=O)Nc4ccccc4)C[C@@H]1[C@H]32` gave RecA splice inh -0.3 and Mtb betalactam -2.
O=C1COc2ccc(C(=O)c3ccccc3C(=O)NCc3ccccc3)cc2N1 was read as RecA splice inh 4.7, Arbovirus inh -11, Mtb betalactam -1, YopH PTP inh -32 and Mtb H37Rv 14%.
`COC(=O)c1nn(-c2ccccc2)c(Sc2ccc(Br)cc2)c1/C=N/O` gave Arbovirus inh 10, Mtb betalactam -20, YopH PTP inh -17 and Mtb H37Rv -3%.
COc1ccc(C(C(=O)NC2CCCCC2)N(Cc2ccco2)C(=O)CNC(=O)c2ccco2)cc1 (stereo not drawn) was read as RecA splice inh 0.0, Arbovirus inh -1, Mtb betalactam 0, YopH PTP inh -20 and Mtb H37Rv -3%.
`CC(C)c1nn(-c2cc(C(F)(F)F)ccn2)c(=O)o1` gave Mtb betalactam -13 and Mtb H37Rv -4%.
For O=C(c1ccc(Cl)cc1)C1CCCN(Cc2ccc3c(c2)OCCO3)C1 (stereo not drawn) the results were RecA splice inh 1.9, Arbovirus inh -3, Mtb betalactam 2 and Mtb H37Rv 7%.
CCOc1ccc(/C=C2\NC(=S)NC2=O)cc1 was read as RecA splice inh 4.5, Mtb betalactam -3 and Mtb H37Rv -2%.
`CCOc1ccc(C(=O)NC(C(=O)NCc2ccccc2OC)C(C)C)cc1` (stereo not drawn) gave RecA splice inh -3.9, Arbovirus inh -12, Mtb betalactam 3 and Mtb H37Rv -2%.
For O=C(N/N=C/c1ccccc1OC(=O)c1ccc2c(c1)OCO2)c1cccc(F)c1 the results were RecA splice inh -0.4, Arbovirus inh -26, Mtb betalactam 75, YopH PTP inh -23 and Mtb H37Rv -7%.
For CCN1N=C(c2cc(Cl)sc2Cl)CSC1=O the results were RecA splice inh 4.3, Arbovirus inh -6, Mtb betalactam 0, YopH PTP inh 4 and Mtb H37Rv -9%.
`C=CCNC(=O)c1ccc(C2SCC(=O)N2Cc2ccccc2)cc1` (stereo not drawn) gave RecA splice inh 0.2, Arbovirus inh 9, Mtb betalactam 10 and Mtb H37Rv -11%.
`COc1cc2c(cc1OC)C(c1ccc([N+](=O)[O-])cc1)NCC2` (stereo not drawn) gave RecA splice inh -2.1 and Mtb betalactam 2.
`N=C1/C(=C/c2cccn2Cc2ccc(Cl)cc2)C(=O)N=C2SC=CN12` gave RecA splice inh -3.0, Arbovirus inh -4, Mtb betalactam 1, YopH PTP inh -6 and Mtb H37Rv 6%.
Screening CCC[N+](C)(C)C(C)C(OC(C)=O)c1ccccc1 (stereo not drawn) returned RecA splice inh -4.1, Mtb betalactam -8 and Mtb H37Rv 16%.
CCOC(=O)CC(=O)CSc1nc(-c2ccccc2)cc(-c2ccccc2)c1C#N was read as RecA splice inh -3.5, Arbovirus inh -29, Mtb betalactam 3, YopH PTP inh -21 and Mtb H37Rv 5%.
Screening O=C(CCC1CCCCC1)NNC(=O)NC12CC3CC(CC(C3)C1)C2 returned RecA splice inh 3.8, Arbovirus inh 8, Mtb betalactam -7, YopH PTP inh -8 and Mtb H37Rv -3%.
Screening c1ccc(Cn2nnc3c(N4CCC5(CC4)OCCO5)ncnc32)cc1 returned RecA splice inh -1.0, Arbovirus inh -10, Mtb betalactam -1, YopH PTP inh -25 and Mtb H37Rv 4%.
Screening COc1ccccc1N(CC(=O)NCCSCc1ccc(C)cc1)S(=O)(=O)c1ccccc1 returned RecA splice inh -0.4 and Mtb betalactam -6.
Cn1nccc1NC(=O)c1nccnc1C(=O)O was read as RecA splice inh 0.0, Mtb betalactam -9 and Mtb H37Rv -6%.
For CC(C)(C)OC(=O)CNC(=O)c1nc[nH]c1C(=O)NCc1ccccc1 the results were RecA splice inh 0.1 and Mtb betalactam -7.
For CC(C)(C)C(=O)COC(=O)c1ccc(O)cc1 the results were RecA splice inh 1.4, Arbovirus inh 1, Mtb betalactam 1, YopH PTP inh -25 and Mtb H37Rv 7%.
`CCN(CC)CCSc1nnc2c3ccccc3n(CCc3ccccc3)c2n1` gave RecA splice inh 3.2 and Mtb betalactam -3.
Cc1nc2ccc(NC(=O)Cc3cccc(F)c3)cc2s1 was read as RecA splice inh 1.1, Arbovirus inh 0, Mtb betalactam -5 and Mtb H37Rv 1%.
`O=C(CNC(=O)c1cccs1)NCC(=O)OCc1ccccc1Br` gave RecA splice inh 1.8, Arbovirus inh -1, Mtb betalactam 0 and Mtb H37Rv -6%.
Screening Cc1ccc(C(=O)C=CNNC(=O)c2ccccc2)cc1 returned RecA splice inh -0.5 and Mtb betalactam 3.
`O=C(NCCN1C(=O)S/C(=C\c2ccc(Cl)c(Cl)c2)C1=O)c1cnccn1` gave RecA splice inh -0.3, Arbovirus inh 1, Mtb betalactam 9, YopH PTP inh -31 and Mtb H37Rv -3%.
O=C(NC1CCCCC1)C1CCN(C(=O)NCc2ccccc2)CC1 was read as RecA splice inh 0.5, Arbovirus inh 1, Mtb betalactam -2, YopH PTP inh -27 and Mtb H37Rv -3%.
For COc1cccc(CNC(=O)CCCCCNC(=O)N2CCn3c2nc2ccccc23)c1 the results were RecA splice inh -1.2 and Mtb betalactam -4.
`NNC(=O)c1sc(-c2ccccc2)cc1N` gave RecA splice inh -0.7, Arbovirus inh -7, Mtb betalactam -7 and Mtb H37Rv 50%.
`Cc1cccc(NC(=O)C[n+]2ccccc2)c1` gave RecA splice inh -0.4 and Mtb betalactam 0.
Screening CCN(CC)CCN(C(=O)c1ccc(C(=O)c2ccccc2)cc1)c1nc2ccc(OC)cc2s1 returned RecA splice inh 7.5 and Mtb betalactam -4.
For Cc1ccc(-c2nc3ccc(Cl)cc3n2OC(=O)N(C)C)cc1 the results were RecA splice inh 0.9, Arbovirus inh -4, Mtb betalactam -15, YopH PTP inh -16 and Mtb H37Rv 9%.
`CC(=O)Nc1ccc(C(=O)OCC(=O)N(Cc2ccccc2)C(C)(C)C)cc1` gave RecA splice inh -2.9, Arbovirus inh -2, Mtb betalactam 8, YopH PTP inh 11 and Mtb H37Rv -16%.
Cc1ccc(NC(=O)NCc2c(C)nn(C)c2C)cc1Cl was read as RecA splice inh -1.9, Arbovirus inh -11, Mtb betalactam 2 and Mtb H37Rv -8%.
Screening O=C(CSc1nnc(COc2ccc(F)cc2)o1)N1CCCCC1 returned RecA splice inh -1.7 and Mtb betalactam 3.
`CCCCOC(=O)Nc1ccc(C(N)=O)cc1` gave RecA splice inh -0.9, Arbovirus inh 21, Mtb betalactam -7, YopH PTP inh -10 and Mtb H37Rv -3%.
COC(=O)c1sc(-c2ccccc2)cc1NC(=O)c1ccc(OC)cc1 was read as RecA splice inh 0.1, Arbovirus inh -24, Mtb betalactam 1, YopH PTP inh -24 and Mtb H37Rv 0%.
